Assay outcomes from PubChem.
Calb FLC = C. albicans growth modulation with fluconazole | C. albicans CaCi-2 (fluconazole-resistant clinical isolate) + fluconazole, Alamar Blue growth, 48 h | growth inhibition, % (test concentration not listed) | 300,000 compounds, 0.57% hits | AID 1979;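 active = most replicates above 75%; inconclusive = exactly half above 75%; inactive = most below 75%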;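 also: all wells also contain fluconazole at 8 µg/ml as a sub-toxic cotreatment; 0% = median of DMSO wells and 100% = median of geldanamycin control wells; wells of about 8 µL received 7.5 nL stock; the first replicate is given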
T cruzi repl = blocks replication of Trypanosoma cruzi; T. cruzi beta-gal in NIH3T3, luminescence, 90 h; inhibition, % (concentration not given with the values); 300,000 compounds, 1.4% hits; AID 1885;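 active = mean inhibition across valid replicates above about 55%, limit read from the data; inconclusive = mean below that limit but half or more replicates reach it; inactive = mean below it, under half of replicates reach it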;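 also: signal also drops with host cell toxicity which is not excluded here; 0% = plate median of DMSO wells and 100% = zero luminescence signal; higher percent means less beta-gal luminescence so fewer parasites; stock transfer was 50 nL into about 50 µL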
Vif A3G = HIV-1 Vif–A3G interaction blockers – biochemical, TR-FRET, GST-Vif 1-94, biotin-A3G peptide, dose response retest, primary screen (AID 1117319); 260,000 compounds, 0.57% hits; TR-FRET GST-Vif / biotin-A3G peptide binding; higher % means a stronger effect; test concentration not given here; strong numbers were not always called active; one-dose inhibition, %; IC50 in µM for titrated hits;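 active = above the screen mean plus three standard deviations and confirmed in dose response; inconclusive = results disagree or hit not tested in dose response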;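 also: Vif residues 1-94 fused to GST binding biotinylated APOBEC3G peptide 110-148; 0% = full assay without inhibitor and 100% = GST in place of GST-Vif; retest series ran down from 100 µM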
Beta apoptosis = blocks beta cell apoptosis | INS-1E cytokine-induced death, ATP luminescence, 48 h; percent of positive-control rescue, neutral wells zero | protection from apoptosis, % (concentration not given with the values) | 300,000 compounds, 0.8% hits | AID 435005;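 active = all replicates at 75% or more, or half of them and the mean; inconclusive = half reach 75% but not the mean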;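 also: 0% = cytokine-treated negative control wells and 100% = positive control rescue; higher means more ATP so stronger rescue from cytokine killing; wells of about 40 µL received 100 nL stock; the first replicate is given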
RanGTP-Imp inh = inhibitors of RanGTP-importin-beta interaction, primary screen, biochemical, FRET, CFP-Ran, YFP-importin-beta, homogeneous; 300,000 compounds, 1.1% hits; cell-free CFP-Ran/YFP-importin-beta FRET ratio; AID 2216; inhibition, % (test concentration not listed);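 active = most replicates above 15%; inconclusive = exactly half above 15%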;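 also: 0% = DMSO wells and 100% = Ran loaded with GDP instead of GTP; wells of about 40 µL received 100 nL stock; the first replicate is given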
A1 inh = inhibitors of the anti-apoptotic protein A1, read as caspase activation | caspase activation, % (concentration not given with the values) | MEF A1-2A-BIM cells, Caspase-Glo 3/7 luminescence, 3 h; percent of clofoctol response, vehicle zero | 330,000 compounds, 0.066% hits | AID 2462;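 active = over half of replicate activation scores above 10%, or exactly half above 10 with the replicate mean above 10; inconclusive = replicate mean below 10 yet half the replicates above 10; inactive = over half of replicates below 10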;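 also: wells of about 30 µL received 50 nL stock; many hits fall short of the cut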
MLL AF4-AF9 inh = MLL-AF4/AF9 protein interaction inhibition. inhibition, % at 10 µM. AlphaScreen, biotin-AF4 peptide binding to FLAG-AF9. P42568. 350,000 compounds, 0.47% hits. AID 651704;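 active = every replicate reaching a set inhibition limit, whatever the replicate mean, cut at about 25% in these data; inconclusive = mean inhibition reaches that limit but some replicates miss it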;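 also: 0% = plate neutral control median and 100% = total signal loss; the record names both 10 and 1 µM as test concentration; the first replicate is given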
Target sequence (P42568 whole entry, looked up): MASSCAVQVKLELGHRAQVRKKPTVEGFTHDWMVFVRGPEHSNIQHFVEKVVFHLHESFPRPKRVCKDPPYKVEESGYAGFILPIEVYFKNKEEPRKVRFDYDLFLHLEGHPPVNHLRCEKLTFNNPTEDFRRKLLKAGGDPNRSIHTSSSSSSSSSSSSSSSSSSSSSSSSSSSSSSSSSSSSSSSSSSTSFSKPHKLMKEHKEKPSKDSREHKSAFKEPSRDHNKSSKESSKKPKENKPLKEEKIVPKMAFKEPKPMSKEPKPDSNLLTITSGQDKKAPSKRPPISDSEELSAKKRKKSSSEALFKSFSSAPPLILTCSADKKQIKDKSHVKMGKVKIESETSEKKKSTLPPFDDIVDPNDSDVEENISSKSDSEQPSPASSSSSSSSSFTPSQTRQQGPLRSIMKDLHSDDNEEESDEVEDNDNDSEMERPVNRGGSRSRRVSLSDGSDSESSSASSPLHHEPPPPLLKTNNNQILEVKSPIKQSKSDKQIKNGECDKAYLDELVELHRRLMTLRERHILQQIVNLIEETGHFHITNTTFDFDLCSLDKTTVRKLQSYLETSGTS
rRNA inh HTS = inhibits bacterial ribosomal RNA function over humanized ribosomes; AID 720706; E. coli WT GFP vs humanized-ribosome RFP mutants, fluorescence, 24 h; hits give low values; DMSO median 0, no signal -100; 350,000 compounds, 1.6% hits; GFP signal change (wild-type ribosome), % (concentration not given with the values);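 active = significant combined selectivity score with lowered wild-type GFP, culture density cut under 30%, mutant RFP and density less affected; inactive = any of these conditions unmet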; also: one replicate is shown; some compounds called inactive have numbers as strong as hits
rRNA inh HTS OD600 = further read-out of rRNA inh HTS, marked with its call; OD600 change, %; measured here: OD600 growth;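 optical density of the mix in the first replicate; 0 = DMSO median and -100 = no signal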
rRNA inh HTS RFP = second read-out of rRNA inh HTS, no call of its own (marks repeat the call); RFP signal change, %; measured here: RFP humanized mutant strains;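 first replicate; 0 = DMSO median and -100 = no signal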
* = called active by the depositor; ? = inconclusive; / = no result given; & = joins results of further samples. These rows are one share of the data; count on the stated rates, not on these rows.

SMILES	Calb FLC	T cruzi repl	Vif A3G	Beta apoptosis	RanGTP-Imp inh	A1 inh	MLL AF4-AF9 inh	rRNA inh HTS	rRNA inh HTS OD600	rRNA inh HTS RFP
O=C1NC(=NCc2ccccc2)S/C1=C\c1ccccc1	-29	-3	1%	-1	2.9	0.0	/	/	/	/
CCCCc1cc(=O)oc2cc(C)cc(OC(C)C(=O)NCc3ccccn3)c12 (stereo unspecified)	8	9	-8%	12	-1.2	-1.4	-0.6	-3	9	-4.1
Cc1ccc(S(=O)(=O)N2CCN(C(=O)CCCOc3ccc(Cl)cc3C)CC2)cc1	6	?	1%	10	2.4	1.4	0.6	-12	-22	-5.3
CSc1ccc(C#N)cc1NC(=O)c1ccccc1	6	-4	-8%	-5	-1.9	1.0	-1.1	2	2	-0.1
Cc1ccc(C)c(N2CCN(S(=O)(=O)c3ccc4c(c3)NC(=O)CC(=O)N4)CC2)c1	2	10	/	-1	6.5	0.1	4.5	-34	-68	-2.8
Cc1cccc(NC(=O)CNC(=O)CN2CCN(C)CC2)c1C	/	/	-2%	-4	/	0.1	-0.1	12	21	-0.4
N#Cc1cnn2c(N)c(-c3ccc(Cl)cc3)cnc12	-1	-6	-3%	7	-3.2	-0.1	-2.3	5	2	3.1
O=C(Cn1cnc([N+](=O)[O-])c1)Nc1cc(Oc2ccc(Cl)cc2Cl)cc([N+](=O)[O-])c1	0	57*	-7%	17	2.8	1.2	/	/	/	/
CN(C(=O)COC(=O)CNC(=O)c1sc2ccccc2c1Cl)c1ccccc1	-1	-11	-12%	-2	-1.9	0.2	-3.0	7	0	-8.5
C=CCC[C@H](Cc1ccc(F)cc1)C(=O)OC[C@@H](Cc1c[nH]c2ccccc12)NC(=O)[C@@H](CC=C)CC(=O)N(CCO)Cc1ccccc1	/	/	/	9	/	-0.1	1.1	7	4	-7.3
O=C(CSC1=NCCS1)N1CCN(c2ccc(Cl)cc2)CC1	-14	26	15%	-4	-1.1	0.6	/	/	/	/
CCOC(=O)N1CCN(C(=O)CSCC(=O)Nc2nc(-c3ccc(Cl)s3)cs2)CC1	11	-2	-1%&-17%	-1	-4.8	-0.6	/	/	/	/
CC(C)[C@H](NC(=O)c1ccccc1Cl)C(=O)OCC(=O)NC(=O)NC1CCCC1	-8	-17	/	-2	2.2	0.2	0.4	9	6	3.7
Cn1c(N)c(C(=O)COC(=O)COc2ccccc2C#N)c(=O)n(C)c1=O	?	-10	-5%	0	1.4	0.2	-0.8	0	-3	-6.1
CCCCN1CNC(=S)N(c2ccc(C(=O)OCC)cc2)C1	6	-25	-9%	-1	1.3	1.2	3.8	7	1	-1.5
CCCS(=O)(=O)N1CCCC(C(=O)NCCc2cccc(C)c2)C1 (stereo unspecified)	-2	2	2%	/	-0.4	-0.4	-2.2	-2	8	-2.2
CCOC(=O)c1ccc(NC(=O)C2CCCO2)cc1 (stereo unspecified)	-9	-6	17%	-6	0.1	-0.3	/	/	/	/
COC(CNC(=O)C(=O)NCC1CCCN1S(=O)(=O)c1cccs1)OC (stereo unspecified)	-4	-3	4%	0	1.7	1.7	-0.6	-1	2	-2.3
Cc1ccc(C)c(-n2c(Cc3cc(=O)[nH]c(=O)[nH]3)nnc2SC(C)C)c1	5	-13	71%	/	0.9	-0.5	0.5	2	3	4.4
CCOC(=O)COc1c(C(=O)OC)sc2ncccc12	-4	-14	-1%	-2	?	-0.3	0.0	8	-7	-2.0
O=C1CN(C(=O)C2CC2)c2ccccc2N1	-5	-13	-9%	-7	3.5	-0.8	/	/	/	/
S=c1nc(C23CC4CC(CC(C4)C2)C3)[nH][nH]1	-9	2	/	-1	-2.6	-0.2	-5.3	-2	-3	3.0
CCc1ccc(CCC(=O)Nc2ccc(C(=O)O)cc2)o1	-6	1	-2%	/	7.7	-0.4	-2.3	5	12	2.5
FC(F)(F)c1cccc(-n2c(Cn3nnc4ccccc43)n[nH]c2=S)c1	0	10	?	/	-2.9	0.1	-3.7	-6	-2	0.0
O=C(N/N=C/c1cccc([N+](=O)[O-])c1)c1cc[n+](CCO)cc1	3	-14	2%	-3	-0.4	-0.7	6.7	-3	-2	-1.4
COC(=O)C[C@H]1c2ccccc2S(=O)(=O)N1C(C)C	-2	-1	/	2	-3.0	0.4	-12	7	5	2.1
CCC(=O)N(Cc1cc2c(C)ccc(C)c2[nH]c1=O)C1CCCCC1	8	23	-13%	-3	2.1	2.0	/	/	/	/
CCC(=O)Nc1ccccc1C(=O)OCC(=O)c1ccccc1	-6	-6	-1%	-2	2.3	-1.3	/	/	/	/
CC(=O)CSc1nnc(CN2C(=O)CSc3ccc(C(F)(F)F)cc32)n1C	-12	-6	-4%	1	2.3	-0.9	-7.9	-5	-9	-3.3
CC(C)(C)c1ccccc1NC(=O)COC(=O)CN1C(=O)NC2(CCCC2)C1=O	2	-6	2%	5	4.5	1.1	0.2	3	1	-1.1
CN(CC(=O)Nc1ccc2c(c1)OCCO2)CC(=O)Nc1ccc(F)c(F)c1F	/	/	-3%	3	/	0.2	-3.8	/	/	/
Cc1ccc(NC(=O)CC(C)CC(=O)NCc2ccccc2)cc1Cl (stereo unspecified)	21	-11	/	3	-2.2	1.1	3.1	6	-2	1.1
Cc1c(-c2ccc(OCc3ccccc3)cc2)nc2ccccc2c1C(=O)O	12	-3	2%	-7	-3.5	0.5	-0.3	5	10	-2.5
C/C(=N\O)C(C)/[N+]([O-])=C/c1nc(C)c(C)n1O (stereo unspecified)	7	-6	/	6	2.9	-0.1	/	/	/	/
CC(=O)Nc1ccc(CN(C)CC2CCCN(CCc3cccc(C(F)(F)F)c3)C2)cc1 (stereo unspecified)	-17	31	5%	-3	0.9	0.6	7.6	14	10	1.5
COc1ccccc1/C=C/C=N/NC(=O)CCn1cnc2ccccc21	16	-11	3%	7	2.6	-0.6	/	-35*	-24*	6.3*
CCN(CC(=O)Nc1c(F)cccc1F)C(=O)/C=C/c1ccc2ccccc2n1	6	-5	/	/	0.7	-0.1	-17	-4	8	-4.0
CCOC(=O)N1CCN(C(=O)c2cccc(N3C(=O)NC4CC3(C)Oc3ccccc34)c2)CC1 (stereo unspecified)	3	8	/	-6	0.4	1.7	0.4	3	3	-2.2
COc1ccc(Nc2nc3ccc(OC)cc3s2)cc1	31	1	?	-5	1.8	-1.5	7.7	-26*	-19*	-4.5*
CCOc1ccccc1-c1nc2c(s1)CCc1onc(-c3ccc(OC)cc3)c1-2	0	-8	/	-6	0.1	0.1	/	/	/	/
O=C(N/N=C/c1cc(Br)ccc1O)c1ccccc1Cl	89*	-19	-36%	69	-3.8	0.2	/	/	/	/
CCN(C(=O)COC(=O)CC(C)c1ccccc1)c1c(N)n(Cc2ccccc2)c(=O)[nH]c1=O (stereo unspecified)	/	/	-5%	0	/	-1.3	2.6	9	14	0.1
CCOC(=O)c1c(-c2ccccc2)n(C)c2ccc(O)cc12	7	-5	4%	-4	-2.5	0.4	/	/	/	/
O=[N+]([O-])c1ccccc1S(=O)(=O)N1CCc2ccccc2C1	-4	7	12%	-7	3.1	0.3	-1.8	-7	2	0.0
O=C(c1ccc(F)cc1)C1CCN(CCn2c(=S)[nH]c3ccccc3c2=O)CC1	/	20	6%	-2	1.4	0.1	/	/	/	/

4 records picked at random from the list so far:
SMILES	Calb FLC	T cruzi repl	Vif A3G	Beta apoptosis	RanGTP-Imp inh	A1 inh	MLL AF4-AF9 inh	rRNA inh HTS	rRNA inh HTS OD600	rRNA inh HTS RFP
CN(CC(=O)Nc1ccc2c(c1)OCCO2)CC(=O)Nc1ccc(F)c(F)c1F	/	/	-3%	3	/	0.2	-3.8	/	/	/
COc1ccccc1/C=C/C=N/NC(=O)CCn1cnc2ccccc21	16	-11	3%	7	2.6	-0.6	/	-35*	-24*	6.3*
Cc1ccc(NC(=O)CC(C)CC(=O)NCc2ccccc2)cc1Cl (stereo unspecified)	21	-11	/	3	-2.2	1.1	3.1	6	-2	1.1
O=C(c1ccc(F)cc1)C1CCN(CCn2c(=S)[nH]c3ccccc3c2=O)CC1	/	20	6%	-2	1.4	0.1	/	/	/	/

Other structures:
SMILES	Calb FLC	T cruzi repl	Vif A3G	Beta apoptosis	RanGTP-Imp inh	A1 inh	MLL AF4-AF9 inh	rRNA inh HTS	rRNA inh HTS OD600	rRNA inh HTS RFP
O=c1[nH]c2cc(Cl)ccc2n1-c1ccccc1	0	-5	-10%	8	0.5	0.3	/	/	/	/
COc1ccc(C(=O)NCc2ccc3c(c2)OCO3)cc1S(=O)(=O)NCc1ccc(Cl)cc1	-8	-13	/	2	-0.8	-1.6	/	/	/	/
O=S(=O)(O)c1cnccc1Nc1cccc(C(F)(F)F)c1	2	-6	/	-3	6.8	0.3	-2.9	5	6	0.2
COc1cc([N+](=O)[O-])ccc1NC(=O)Nc1nc2c(s1)CCCC2	11	21	/	/	8.3	-0.8	1.0	-7	12	-1.6
O=C(N/N=C/c1c[nH]c2ccccc12)c1cccs1	3	-21	-14%	3	2.2	-1.3	11	-11	4	4.0
COc1cc2c(cc1OC)C(C)N(S(=O)(=O)c1cccs1)CC2 (stereo unspecified)	1	3	-3%	3	-2.4	0.7	-7.2	-6	2	2.3
CC(=O)C(=[N+]=[N-])C(=O)NCc1ccccc1	4	2	0%	/	3.0	1.9	/	/	/	/
Cc1ccc(OCC(=O)Nc2ccc(Cl)cc2)c(-n2nc3ccccc3n2)c1	-5	7	-7%	47	?	0.2	/	/	/	/
Cc1ccc(S(=O)(=O)NCC(=O)N(CC2CCCO2)C(C(=O)NCC2CCCO2)C(C)C)cc1 (stereo unspecified)	-11	0	1%	0	?	-0.8	2.3	5	8	1.0
OCCNc1ccc(Cl)cc1	0	-6	64%	2	-1.0	-0.1	/	/	/	/
O=C(Cc1ccccc1Cl)Nc1cc(S(=O)(=O)N2CCOCC2)ccc1N1CCOCC1	/	/	/	-1	/	-0.3	0.5	-18	-22	-5.1
COc1ccccc1C1C(C(C)=O)=C(O)C(=O)N1CCc1ccccc1 (stereo unspecified)	12	7	-7%	-3	1.5	-0.5	/	/	/	/
CCC(C)(C)NC(=O)C(c1cccn1C)N(Cc1ccccc1)C(=O)Cn1nnc2ccccc21 (stereo unspecified)	-4	15	0%	/	0.8	/	/	/	/	/
O=S1(=O)N=C(SCCO)c2ccccc21	-1	-12	21%	-7	-1.7	-0.4	/	/	/	/
CC(=O)n1c2c(c3ccccc31)OC(N)=C(C#N)C2c1cccc(Cl)c1Cl (stereo unspecified)	11	-5	11%	15	7.2	-0.5	-0.7	-8	-5	-2.8
